2A StopGo = FMDV 2A StopGo reporter, luciferase signal; human cells with a luciferase reporter of 2A StopGo recoding; control for the full effect not named in the record; Potency, µM (top dose mostly 57.9 µM), without a hit: top-dose signal change, negative = less light; AID 1159524; 410,000 tested, 1.2% active; active = well fitted falling curve with a large enough effect; inconclusive = small, poorly fitted or top-dose-only effect; inactive = no such curve, though single readings can be large or run the other way; tested in HEK293T cells; also: nearly all actives have a fitted effect of over 45% in size; luciferase light after 4 h
RE007 growth inh = less growth of the S. pombe RE007 Vpr strain; S. pombe RE007 Vpr strain, BacTiter-Glo ATP luminescence, 24 h; control for the full effect not named in the record; Potency, µM (doses to about 92.2 µM), inactives show at the highest dose activity change, negative = less growth; 360,000 tested, 0.21% active; active = well fitted falling curve with a large enough effect; inconclusive = small, poorly fitted or top-dose-only effect; inactive = no such curve, though single readings can be large or run the other way;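 also: nearly all actives have a fitted effect of over 50% in size; the assay follows cell death caused by Vpr and the record does not say whether a fall means rescue or toxicity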
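Fission yeast RE007 carrying one integrated HIV-1 vpr copy, seeded at OD 0.01 in PMG+AL medium with 23 nL pinned compound. Grown 24 h at 30 degrees; viability read by BacTiter-Glo luminescence after 5 min.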
* = called active by the depositor; ? = inconclusive; [ ] = remark or other dose. % is scaled to controls: 0 for no effect and ±100 for the full control effect; potency is read from the fitted curve at half-maximal effect. Only part of the results is shown; the hit share may differ from the screen's.

SMILES | 2A StopGo | RE007 growth inh
CN(C(=O)c1cccc(NC(=O)Cc2ccc(NC(=O)C3CCN(C(=O)C4CCCCC4)CC3)cc2)c1)C1CCCCC1 | -23% | 7%
CC(C)C[C@H]1CN([C@@H](Cc2ccccc2)CN2CCC[C@@H]2CN2C(=O)C(=O)NC[C@@H]2Cc2ccccc2)C(=O)C(=O)N1CCc1ccccc1 | -12% | -14%
Cc1cc(C)n2c(Nc3c(C)cccc3C)c(-c3ccccn3)nc2n1 | ? | -19%
Cn1c(NCCc2ccncc2)nc2cc(-c3ccsc3)sc2c1=O | -3% | -18%[18.4 µM]
Cc1ccc(S(=O)(=O)N2[C@H](CC(=O)c3ccc(F)cc3)OC[C@@H]2C(C)C)cc1 | -11% | -4%
CCCS(=O)(=O)NC(=O)C1(C)CCCN(C(=O)c2cccc3ccccc23)C1 (configuration not stated) | 6% | 9%
COc1ccc(S(=O)(=O)N2CCCCCC2)cc1C(=O)N1CCN(c2ccc(F)cc2)CC1 | -9% | 11%
CC(C)N1CCC1(C)C(=O)Nc1nc2ccccc2[nH]1 (configuration not stated) | -8% | -8%
CC[C@@H]1[C@H]2CCCC(=O)N3CC[C@@H](C[C@H]1O)[C@@H]23 | 0% | 0%
CCNC(=O)C1(C)CCCN(CCOc2ccc(OC)cc2)C1 (configuration not stated) | -4% | 8%
COc1cc(C(C)=O)ccc1OCC(=O)NCc1ccccc1CN1CCCC1 | -6% | -3%
O=C(OCc1ccccc1)N1CCC2CC1c1ccc(N3CCOCC3)cc12 (configuration not stated) | 55%[activator] | 3%
CN(C(=O)c1cc(-c2cccs2)nn1-c1ccccc1)C1CCS(=O)(=O)C1 (configuration not stated) | -19% | -8%
CC(C)(C)C(=O)N1Cc2cnnn2-c2ccccc2C1C#N (configuration not stated) | 13% | 7%
CCCCNC(=O)C1(C)CCCCCN1Cc1cc2ccccc2o1 (configuration not stated) | ? | 0%[18.4 µM]
O=C(C(=O)N1CCN(c2ccccc2)CC1)c1ccco1 | -11% | 4%
CC(=O)C[C@H]1c2cc(C(F)(F)F)ccc2S(=O)(=O)N1Cc1ccccc1 | 38%[activator] | -2%
Cc1ccc(S(=O)(=O)NC(=O)C2(C)CCN2C(=O)Cc2ccc(Cl)cc2Cl)cc1 (configuration not stated) | -8% | 0%[18.4 µM]
COc1ccccc1-c1cc2nc(NCCc3ccncc3)ccn2n1 | 0% | -4%
COc1cccc(CN(C)C(=O)c2cccc(S(=O)(=O)N3CCN(c4ccccc4)CC3)c2)c1 | ? | 13%
CC(C)(C)S(=O)(=O)N1C[C@H]2C(=CC[C@@H]3C(=O)N(c4ccccc4)C(=O)[C@@H]32)[C@H]1CCO | -19% | -4%
COc1ccc([C@H]2CC(=O)C[C@@H](CCn3ccnn3)O2)cc1 | -9% | 18%
CCCCCN1C(=O)c2ccccc2[C@@]2(C(=O)OCC)Cc3cc(Cl)ccc3[C@@H]12 | ? | 24%
COc1ccc(-c2cc(NC(C)=O)c3ncc(-c4ccccc4)n3c2)cc1OC | -28% | -24%
Cc1noc(C)c1-c1ccc(C(=O)NCc2ccco2)c2occc12 | 37%[activator] | 23%
CCOC(=O)C1(C)CCN1C(=O)c1cncc(Br)c1 (configuration not stated) | -11% | -22%
CCc1ccc([C@H]2[C@@H]3C(=O)C[C@@H]4C(=O)N(Cc5ccccc5)C(=O)[C@@H]4[C@@H]3CN2S(=O)(=O)c2ccc(C)cc2)cc1 | 0% | -4%
COc1ccccc1CN1[C@@H](CC(=O)O)c2cc(F)ccc2S1(=O)=O | -7% | 3%
COc1ccccc1-c1cc(NC(C)=O)c2ncc(-c3cccc(C(C)=O)c3)n2c1 | 34%[activator] | 8%[18.4 µM]
Cc1cc(=O)[nH]c2c(C)cc(S(=O)(=O)N3CCOCC3)cc12 | 1% | -6%
Cc1cccc(C)c1-n1nnnc1C1(C)CCC(=O)N1Cc1ccco1 (configuration not stated) | -20% | 6%
COc1ccccc1NC(=O)C1CCOC1=O (configuration not stated) | -10% | 16%
COc1ccc(-c2cnc3c(NC(C)=O)cc(-c4ccccc4OC)cn23)cc1OC | -8% | 10%[18.4 µM]
O=C(NCc1cccnc1)c1cc(C2CCCCN2S(=O)(=O)c2ccc(F)cc2F)on1 (configuration not stated) | -12% | -4%
CC(C)Cc1ccc(-c2cc3nc(NCCc4ccc(S(N)(=O)=O)cc4)ccn3n2)cc1 | 9% | 0%[18.4 µM]
O=S1(=O)CC(N2CCCC2)CN1Cc1cn(Cc2cccc(C(F)(F)F)c2)nn1 (configuration not stated) | -17% | 2%
Cc1ccc(C(=O)N2CCCc3ccccc32)c(Cl)c1 | 13% | -9%
CCOC(=O)C1(C)CCCN1C(=O)c1snnc1C (configuration not stated) | -5% | 15%
NC(CSC(c1ccccc1)(c1ccccc1)c1ccc2c(c1)OCO2)C(=O)O (configuration not stated) | -15% | -8%
Cc1ccc(S(=O)(=O)N(C)C[C@H]2OCCCC[C@H](C)Oc3ccc(NC(=O)Nc4cccc5ccccc45)cc3C(=O)N([C@@H](C)CO)C[C@H]2C)cc1 | -10% | 0%
COC(=O)c1ccc2nc(-c3ccc(C#N)cc3)c(Cc3cccc(F)c3)n2c1 | 0% | -11%
CCCC(=O)N1CCCC(c2cc(C(=O)NCc3cccnc3)no2)C1 (configuration not stated) | -9% | -5%
O=C(NCCF)C1Nc2ccc(OC(F)(F)F)cc2C2C=CCC12 (configuration not stated) | -6% | -2%
CC(=O)NC(c1ccc(F)c(F)c1)c1nc(-c2cccc(C(C)C)c2)cs1 (configuration not stated) | -23% | 8%
Clc1ccc(-c2nc3ccc(Br)cn3c2Cc2ccsc2)cc1 | 31%[activator] | -6%
O=C1CCCN1CCCNCCCn1cnc2c(OCc3ccccc3)ncnc21 | ? | -11%
CCCCCCN1C[C@H](O)[C@@H](n2cc(C3CC3)nn2)C[C@@H]1c1ccc(OC)cc1 | 0% | -20%
CCCC(=O)N1CCCC1(C)C(=O)NCc1ccc(SC)cc1 (configuration not stated) | 4% | 5%
O=C(Cc1ccc(NC(=O)C2CCCN(C(=O)C3CCCCC3)C2)cc1)Nc1ccc(C(=O)N2CCOCC2)cc1 (configuration not stated) | -1% | -5%
O=C(NCc1ccccc1)c1cc(C2CCCCN2C(=O)c2ccccc2)on1 (configuration not stated) | -13% | -7%[18.4 µM]
O=C1NC[C@@H](CCCCN2CCN(CCc3ccc(O)cc3)C(=O)C2=O)N(CC2CCCCC2)C1=O | -12% | -12%
CC(CC(=O)Nc1ccc2c(c1)c(=O)n(C)n2Cc1cccc(C(F)(F)F)c1)C(F)(F)F (configuration not stated) | -4% | 2%
CC1(C(=O)Nc2ccccc2)CCN1C(=O)Cc1ccc(-c2ccccc2)cc1 (configuration not stated) | ? | 7%[18.4 µM]
CCCc1ccc2ccc3ccccc3c2n1 | 7% | 2%
C[C@H]1CN([C@@H](C)CO)S(=O)(=O)c2ccc(Br)cc2O[C@H]1CN(C)C(=O)c1cccnc1 | -26% | -13%
COC1=CC(=O)c2nc(Cl)ccc2C1=O | 10µM* | -13%[18.4 µM]
O=S1(=O)CC(N2CCC(c3ccccc3)CC2)CN1C1CCCCC1 (configuration not stated) | -6% | -18%
CCCCNC(=O)C1C(c2ccc(OC)cc2)=Nc2ccccc2N1C(=O)c1ccc2ncccc2c1 (configuration not stated) | 55%[activator] | -3%
O=C(NCc1ccccc1)C1C(c2ccc3c(c2)OCO3)=Nc2ccccc2N1C(=O)c1cccc2ccccc12 (configuration not stated) | 15% | -4%
CC(C)c1cc(Cn2c3ccccc3c(=O)n2C(C)Cn2cc(CCCC#N)nn2)on1 (configuration not stated) | -5% | 0%

(list continues)
SMILES | 2A StopGo | RE007 growth inh
CCOC(=O)c1cc(OCC)c2c(ccc3cc(OC)ccc32)n1 | 12% | 5%
CN(C)c1ccccc1-c1cc(NC=O)c2ncc(-c3cccc(C(F)(F)F)c3)n2c1 | -22% | -27%[18.4 µM]
CC(C)C[C@H](NC(=O)CC[C@H]1O[C@@H](n2ccc(=O)[nH]c2=O)[C@H](O)[C@@H]1O)C(=O)O | -27% | 5%
CC(C)(C)c1ccc(C(=O)NCCC(=O)NCc2ccc(F)cc2)cc1 | -24% | -4%
COc1cccc(Cn2c(C(C)n3c(-c4cnccn4)nc4ccccc43)nc3ccccc32)c1 (configuration not stated) | -24% | -4%
Cc1ccc(C(=O)C=CC=Cc2ccccc2)cc1 | 44%[activator] | -14%
Cc1csc(-c2nc3ccccc3n2C(C(=O)NC(C)(C)C)c2cc3ccccc3o2)c1 (configuration not stated) | 24% | -7%
Cc1ccc(S(=O)(=O)N2C[C@@H](C)[C@]3(C2)[C@H](O)[C@H](OC(=O)NCc2ccccc2F)C[C@H]2C(=O)N(c4ccccc4)C(=O)[C@H]23)cc1 | -2% | -14%
C[C@@H]1CN([C@@H](C)CO)C(=O)c2cc(Br)cnc2O[C@H]1CN(C)C(=O)Nc1ccccc1 | ? | 4%
COc1ccc(C2=Nc3ccccc3N(C(=O)c3ccc(C(F)(F)F)cc3)C2C(=O)Nc2c(C)cccc2C)cc1 (configuration not stated) | -8% | 9%
COC(=O)C[C@@H]1C[C@H]2c3cc(NC(=O)CC4CC4)ccc3O[C@H]2[C@@H](CO)O1 | -20% | -1%
Cc1cccc(C)c1NC(=O)CN1CCc2ccccc2C1 | -9% | -7%

A section of the results above:
SMILES | 2A StopGo | RE007 growth inh
CC(C)c1cc(Cn2c3ccccc3c(=O)n2C(C)Cn2cc(CCCC#N)nn2)on1 (configuration not stated) | -5% | 0%
CCOC(=O)c1cc(OCC)c2c(ccc3cc(OC)ccc32)n1 | 12% | 5%
CN(C)c1ccccc1-c1cc(NC=O)c2ncc(-c3cccc(C(F)(F)F)c3)n2c1 | -22% | -27%[18.4 µM]
CC(C)C[C@H](NC(=O)CC[C@H]1O[C@@H](n2ccc(=O)[nH]c2=O)[C@H](O)[C@@H]1O)C(=O)O | -27% | 5%
CC(C)(C)c1ccc(C(=O)NCCC(=O)NCc2ccc(F)cc2)cc1 | -24% | -4%
COc1cccc(Cn2c(C(C)n3c(-c4cnccn4)nc4ccccc43)nc3ccccc32)c1 (configuration not stated) | -24% | -4%
Cc1ccc(C(=O)C=CC=Cc2ccccc2)cc1 | 44%[activator] | -14%
Cc1csc(-c2nc3ccccc3n2C(C(=O)NC(C)(C)C)c2cc3ccccc3o2)c1 (configuration not stated) | 24% | -7%
Cc1ccc(S(=O)(=O)N2C[C@@H](C)[C@]3(C2)[C@H](O)[C@H](OC(=O)NCc2ccccc2F)C[C@H]2C(=O)N(c4ccccc4)C(=O)[C@H]23)cc1 | -2% | -14%
C[C@@H]1CN([C@@H](C)CO)C(=O)c2cc(Br)cnc2O[C@H]1CN(C)C(=O)Nc1ccccc1 | ? | 4%
COc1ccc(C2=Nc3ccccc3N(C(=O)c3ccc(C(F)(F)F)cc3)C2C(=O)Nc2c(C)cccc2C)cc1 (configuration not stated) | -8% | 9%
COC(=O)C[C@@H]1C[C@H]2c3cc(NC(=O)CC4CC4)ccc3O[C@H]2[C@@H](CO)O1 | -20% | -1%
Cc1cccc(C)c1NC(=O)CN1CCc2ccccc2C1 | -9% | -7%

(list continues)
SMILES | 2A StopGo | RE007 growth inh
O=C(Nc1cccc(Cl)c1Cl)c1ccco1 | 48%[activator] | -14%
CCOC(=O)C1(C)CCN1C(=O)c1ccc(N(C)C)cc1 (configuration not stated) | 3% | -5%[18.4 µM]
Cc1cc(C(=O)c2ccc3ccccc3c2)c(C)o1 | 25% | -4%
CCC(=O)N1CCC1(C)C(=O)Nc1cccc(Oc2ccccc2)c1 (configuration not stated) | 21% | 9%[18.4 µM]
CN(C)CCNC(=O)c1cccc(-c2cnc3c(NC=O)cc(-c4ccccc4F)cn23)c1 | -3% | -14%
Cc1ccc(F)cc1C(=O)N1CCCCC1c1cc(C(=O)Nc2ccc(F)c(Cl)c2)no1 (configuration not stated) | ? | -1%[18.4 µM]
Cc1ccc(C2CC(c3ccccc3)=NN2c2ccc(S(N)(=O)=O)cc2)cc1 (configuration not stated) | -11% | 32%
C[C@H]1CN([C@@H](C)CO)C(=O)CCCn2nncc2CO[C@@H]1CN(C)Cc1ccccc1C(F)(F)F | 0% | 7%
CC(=O)Nc1ccc(-c2ccnc3c2CC(C(=O)NCc2ccc(N4CCN(C)CC4)cc2)O3)cc1 (configuration not stated) | -2% | -11%[18.4 µM]
O=C1C(=Cc2ccccc2[N+](=O)[O-])Cc2ccccc21 | ? | 2.5µM*
COc1ccc(NC(=O)c2cc(-c3cc(C)cc(F)c3)n[nH]2)cc1OC | -6% | 2%
O=C(O)C1=C[C@@H](c2ccc(C(F)(F)F)cc2)C[C@@H](OCCCCO)O1 | -9% | -4%
NC(=O)C1(N2CCCCC2)CCN(C(=O)c2cc(COc3c(F)cccc3F)on2)CC1 | ? | -9%
CCCCCCN1C[C@@H](n2cc(C3CC3)nn2)[C@H](O)C[C@@H]1c1ccccc1 | -11% | 5%
C[C@H](NC(=O)C[C@@H]1C=C[C@@H](NC(=O)CN2CCOCC2)[C@@H](CO)O1)c1ccccc1 | -17% | 9%
COC(=O)[C@@]12CCCCN1[C@H](c1ccc(-c3ccc(Cl)c(Cl)c3)c(OC)c1)[C@@H]1C(=O)N(C)C(=O)[C@@H]12 | ? | -18%
Cc1cc(Br)cn2c(Cc3cccc(F)c3)c(-c3cccc(Br)c3)nc12 | 0% | -16%
CCOC(=O)Cc1ccc(Nc2nc(NC)nc3ccsc23)cc1 | ? | 6%
C[C@@H]1CN([C@@H](C)CO)C(=O)CCCn2nncc2CO[C@H]1CN(C)Cc1ccc(-c2ccccc2)cc1 | ? | 2%

Screens from PubChem BioAssay.
